Screening data from PubChem.
PINK1 expr mod: A Quantitative High throughput Screen to Identify Chemical Modulators of PINK1 Expression | PINK1 immunofluorescence, high-content cytometry, 24 h | Potency, µM (doses to about 76.6 µM), for inactives: at the highest dose activation (PINK1 increase), actives largely listed as activators | 0.2% of 410,000 active | AID 624263, 2012; active = well fitted activation curve with a large enough effect; inconclusive = small, poorly fitted or top-dose-only effect; inactive = flat fitted curve, though single readings scatter; cell line not stated here;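 further: % of control where 0% means no effect; nearly all actives have a fitted effect of over 65% in size; a mitochondrial uncoupler was the plate control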
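Compound titrations (5 concentrations, 24 h) on a stable cell line; DMSO and CCCP controls. Endpoint: fixed-cell PINK1 immunofluorescence with mitochondrial, cell and nuclear markers, scanned by microplate cytometer.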
An asterisk follows results filed as active; ? = inconclusive. Potency means the concentration at half of the fitted maximal effect. This is a subset, so the mix of outcomes need not match the whole.

SMILES	PINK1 expr mod
COc1cc(C(=O)NCCSc2c(-c3ccccc3)[nH]c3ccccc23)cc(OC)c1OC	0.5%
O=C(Cc1ccc(Cl)cc1)NC1CC(=O)N(c2ccc3c(c2)OCCO3)C1 (stereo unspecified)	-0.1%
COc1cc(CN2CCOc3ccc(CN4CCC(O)(c5cccnc5)CC4)cc3C2)cc(OC)c1	0.5%
CCCCN1C(=O)C(O)(CC(=O)c2ccc(CC)cc2)c2cc(Br)ccc21 (stereo unspecified)	6.3%
CCc1cc(=O)[nH]c(SCc2nc(-c3ccccc3)no2)n1	2.1%
CC(=O)c1ccc(NC(=O)C2=CC(c3ccc(C)cc3)=NS(=O)(=O)N2C)cc1	-0.3%
Cc1ccc(NC(=O)c2ccc(CN3CC(=O)N4CCCCC4C3=O)cc2)cc1C (stereo unspecified)	-1.4%
Cc1nn(Cc2noc(C(=O)NCc3cccc(F)c3)n2)c(C)c1Br	-4.9%
Cc1cc(C(=O)NCC2CCC3(CCN(Cc4ccc(F)cc4)CC3)O2)n(C)n1 (stereo unspecified)	-0.2%
Cc1oc2ncn(CC(C)C)c(=O)c2c1C(=O)N(Cc1ccccc1)C(C)C	0.3%
CCc1ccc(NC(=O)CSc2nc3nccnc3c(=O)n2CCc2c[nH]c3ccccc23)cc1	0.4%
COc1cc2c(cc1OC)n(CC(=O)c1ccc(C)cc1)c(=O)n1nc(CCn3nc(C)cc3C)nc21	0.1%
CCc1ccc(NC(=O)C(=O)NCCc2csc(-c3ccc(C(F)(F)F)cc3)n2)cc1	0.6%
CCOC(=O)c1[nH]c(C)c(CCC(=O)Nc2cc(Cl)c(OC)cc2OC)c1C	2.4%
Cc1ccc(NC(=O)c2c(NC(=O)c3ccco3)sc3c2CCC(C(C)(C)C)C3)c(C)c1 (stereo unspecified)	6.0%

3 entries out of the list, sorted by formula weight, highest first:
SMILES	PINK1 expr mod
COc1cc(C(=O)NCCSc2c(-c3ccccc3)[nH]c3ccccc23)cc(OC)c1OC	0.5%
O=C(Cc1ccc(Cl)cc1)NC1CC(=O)N(c2ccc3c(c2)OCCO3)C1 (stereo unspecified)	-0.1%
Cc1oc2ncn(CC(C)C)c(=O)c2c1C(=O)N(Cc1ccccc1)C(C)C	0.3%

Following part:
SMILES	PINK1 expr mod
COC(=O)CC1Oc2ccc(Cl)cc2-n2cc(-c3ccc(C)cc3)nc21 (stereo unspecified)	9.0%
CC1CCN(c2nc3c(S(=O)(=O)c4ccc(Cl)cc4)nnn3c3ccsc23)CC1	0.7%
CC(=O)c1cccc(NC(=O)c2nc(-c3ccc(C)cc3)n3c2CCCCC3)c1	-0.7%
O=C(CSc1nc2sc3c(c2c(=O)[nH]1)CCCC3)Nc1ccccc1F	0.2%
Cc1ccc2c(=O)c(C(=O)c3cccc(Cl)c3)cn(CC(=O)NC3CCCCC3)c2n1	3.2%
CCOC(=O)c1cnc2c(C)cc(C)cc2c1Nc1ccc(OCc2ccccc2)cc1	1.9%
O=C(Cn1c(=O)nc(-c2ccccc2)c2cc(Cl)ccc21)N1CCN(c2ccc(F)cc2)CC1	0.3%
CCOc1ccc(NC(=O)CN2CCSc3ccc(S(=O)(=O)N4CCCC4)cc32)cc1	5.3%
O=[N+]([O-])c1cc(-c2nc(-c3cccnc3)no2)ccc1NCc1ccccc1	0.0%
CCOc1ccc(CNS(=O)(=O)c2ccc3c(c2)CCCN3C(C)=O)cc1	-2.1%
Cc1ccc(-c2nc(C)c(CCNC(=O)C(=O)Nc3ccc4c(c3)OCCO4)s2)cc1	2.2%
COc1ccc(Nc2cc(C)nc(-n3nc(C)cc3C)n2)cc1Cl	5.1%
COC(=O)c1ccc(OC)c(Cn2c(=O)n(-c3ccc(C)cc3)c(=O)c3c2cnn3C)c1	3.3%
Cc1c(C(=O)NCc2cccc(Cl)c2)sc2nc3n(c(=O)c12)CCCC3	?
COCC1CCCN(Cc2ccc3c(c2)CN(C(=O)c2ccc(OC)nc2OC)CCO3)C1 (stereo unspecified)	0.1%
Cc1ccc(C(=O)c2sc(Nc3ccccc3)c(S(=O)(=O)c3ccccc3)c2N)c(C)c1	1.7%
Cc1ccc(-c2nc(CSc3nncn4c3cc3occc34)c(C)o2)cc1	0.7%
COc1ccc(OCc2ccc(-c3nc(C#N)c(N4CCC(C)CC4)o3)o2)cc1	-1.4%
COc1ccccc1NC(=O)CSC1=Nc2ccccc2C2=NC(CC(=O)NCc3ccc4c(c3)OCO4)C(=O)N12 (stereo unspecified)	2.4%
COc1ccc(CCNc2nc(-c3ccc(OC)c(OC)c3)cc(C(F)(F)F)n2)cc1OC	10.7%
CCOc1ccc(N(CC)S(=O)(=O)c2cc(Br)cc3c2N(C(C)=O)C(C)C3)cc1 (stereo unspecified)	0.8%
Cc1ccc(Cn2c(SCc3ccc(C(=O)N4CCCCC4)cc3)nc3ccncc32)cc1	-0.3%
O=C(NCCc1ccc(Cl)cc1)c1cc2c(s1)-c1ccccc1OC2	6.7%
Cc1cc(C)c(NC(=O)CSc2nnc3[nH]c(=O)cc(C)n23)c(C)c1	5.4%
CCN1CCN(c2ncnc3c2cnn3-c2ccc(C)c(C)c2)CC1	-0.4%
O=C1c2oc3ccccc3c(=O)c2C(c2ccccc2)N1Cc1ccc2c(c1)OCO2 (stereo unspecified)	-1.6%
COc1ccc(NC(=O)COc2ccccc2C(=O)Nc2ccccc2)cc1	1.2%
CC(=O)N1CCCC1c1nc2ccccc2n1Cc1cccc(Cl)c1 (stereo unspecified)	0.5%
COc1ccc(NC(=O)c2ccc3c(=O)n4nc(Nc5cc(C)ccc5C)sc4nc3c2)cc1	-0.5%
CCCNC(=O)CSc1nc(-c2ccc(OC)cc2)cc(C(F)(F)F)n1	1.3%
COc1cc2[nH]c(=O)n(Cc3ccc(C(=O)N4CCN(c5cccc(C)c5C)CC4)cc3)c(=O)c2cc1OC	1.7%
Cc1nn(C)c2c1c(-c1ccccc1)cc(=O)n2Cc1ccc(F)cc1Cl	1.7%
CCC1CN(C(=O)N2CCC(C(=O)NCc3ccc(N(C)C)cc3)CC2)c2ccccc2O1 (stereo unspecified)	2.3%
O=C(NC1CC(=O)N(c2ccc(Cl)cc2)C1)c1ccc(S(=O)(=O)N2CCCC2)cc1 (stereo unspecified)	1.4%
CCOc1ccc(-c2nc(Cn3ccn4nc(-c5ccc(OCC)c(Cl)c5)cc4c3=O)c(C)o2)cc1	1.4%
CC1Cn2c(C(=O)NCc3cccc(Br)c3)cc3cccc(c32)S1 (stereo unspecified)	-0.3%
CCOC(=O)c1cccc(NC(=O)C(C)n2nc(C)c3c(C)n(-c4ccccc4)nc3c2=O)c1 (stereo unspecified)	-1.3%
CCc1ccc(NC(=O)CSc2nc3c(c(=O)[nH]2)CN(Cc2ccc4c(c2)OCO4)CC3)cc1	-1.0%
O=S(=O)(Nc1cccc(-c2ccc(N3CCCC3)nn2)c1)c1cc(F)ccc1F	0.0%
COc1cccc(CNc2nc3ccccc3c3nc(-c4cccc(C)c4)nn23)c1	1.0%
COc1ccc(C2=C(C)C(=O)N(Cc3ccc(C(=O)NC(C)c4ccccc4)cc3)S2(=O)=O)cc1 (stereo unspecified)	1.4%
Cc1cc(C)cc(-n2cnc3cc(C(=O)NC4CCCCCC4)ccc32)c1	1.0%
CCOc1cccc(OCCCn2c(-c3ccc(Br)cc3)nc3ccccc3c2=O)c1	1.2%
Cc1nc2c3ccccc3nc(NNC(=O)CCC(=O)N3CCN(c4cccc(Cl)c4)CC3)n2n1	-1.1%
Cc1ccc2ncc3c(-c4ccccc4)nn(CC(=O)NC4CCCCC4)c3c2c1	-0.6%

Molecules from the list above that have an NH in an aromatic ring (8):
SMILES	PINK1 expr mod
COc1cc(C(=O)NCCSc2c(-c3ccccc3)[nH]c3ccccc23)cc(OC)c1OC	0.5%
CCc1cc(=O)[nH]c(SCc2nc(-c3ccccc3)no2)n1	2.1%
CCc1ccc(NC(=O)CSc2nc3nccnc3c(=O)n2CCc2c[nH]c3ccccc23)cc1	0.4%
CCOC(=O)c1[nH]c(C)c(CCC(=O)Nc2cc(Cl)c(OC)cc2OC)c1C	2.4%
O=C(CSc1nc2sc3c(c2c(=O)[nH]1)CCCC3)Nc1ccccc1F	0.2%
Cc1cc(C)c(NC(=O)CSc2nnc3[nH]c(=O)cc(C)n23)c(C)c1	5.4%
COc1cc2[nH]c(=O)n(Cc3ccc(C(=O)N4CCN(c5cccc(C)c5C)CC4)cc3)c(=O)c2cc1OC	1.7%
CCc1ccc(NC(=O)CSc2nc3c(c(=O)[nH]2)CN(Cc2ccc4c(c2)OCO4)CC3)cc1	-1.0%

(next part)
SMILES	PINK1 expr mod
CCc1cccc(NC(=O)Cn2nc3c4cc(F)ccc4n(Cc4cccc(C)c4)cc-3c2=O)c1	?
O=C(NCc1ccc(F)cc1)c1cccc(N2CCCS2(=O)=O)c1	0.8%
Cc1ccc2c(c1)N(CC(=O)NCCc1ccccc1)C(=O)CO2	0.3%
CCC(=O)Nc1nnc2n1CCS2	-2.7%
Cc1ccc(Cl)cc1N1CCN(C(=O)c2cnn(-c3ccc(Cl)cc3)c2C2CCNCC2)CC1	-1.2%
O=C(Nc1nc2ccccc2s1)c1ccc(S(=O)(=O)N2CCCC2)cc1	3.3%
Cc1ccc(-n2ccnc(NCCc3ccc(S(N)(=O)=O)cc3)c2=O)c(C)c1	1.4%
Cc1ccc(CSc2ccc3nnc(CCNS(=O)(=O)c4ccc(C)cc4)n3n2)cc1	-0.7%
O=C(c1cnc(N2CCCCC2)c2ccccc12)N1CCN(c2cccc(Cl)c2)CC1	9.6%
COc1ccc(C(=O)Nc2ccccc2)cc1S(=O)(=O)Nc1ccc(Br)cc1	7.5%
CCCCc1nn2c(=O)cc(COC(=O)CNC(=O)COc3ccc(C)cc3)nc2s1	2.7%
CC1CCN(CC2CCN(C(=O)NCc3ccc(F)cc3)CC2)CC1	2.9%
CCOc1cc2sc(N3CCC(C(=O)Nc4ccc(C)cc4C)CC3)nc2cc1Br	1.1%
COc1ccc(C(=O)NCc2nc(-c3cccc(C)c3)no2)cc1OC	0.9%
COc1ccc(-c2cc3ccc(O)c(CN4CCN(C)CC4)c3oc2=O)cc1OC	-0.2%
Cc1ccc(CNC(=O)CN2CCN(Cc3ccc(F)cc3Cl)C2=O)cc1	-0.5%
Cn1c(=O)oc2cc(S(=O)(=O)N3CCCC(C(=O)NCc4ccccc4Cl)C3)ccc21 (stereo unspecified)	2.9%
O=C(Nc1cccc(F)c1)c1ccc2c(c1)N(Cc1ccccc1)C(=O)c1ccccc1S2(=O)=O	0.4%
CCOc1ccc(CCNC(=O)Cn2ccc3cc(S(=O)(=O)N4CCCCC4)ccc32)cc1	3.1%
NC(=O)C1CCN(c2nc(-c3ccccc3C(F)(F)F)cs2)CC1	0.3%
Cc1cccc(C)c1NC(=O)Cn1c(=O)n(Cc2ccco2)c(=O)c2ccc(C(=O)NC3CCCC3)cc21	-3.0%
Cc1ccc(NC(=O)CSc2nnc(C)c(=O)[nH]2)cc1	1.8%
O=C(NCc1ccccc1Cl)c1ccc(CSCc2cccc(F)c2)o1	0.1%
CCOC(=O)c1cc(-c2ccccc2)n(CCCC(=O)Nc2ccc(C(C)C)cc2)c1C	1.4%
CC1CCC(NC(=O)c2ccc(CSc3nc4ccncc4n3Cc3ccc(F)cc3)cc2)CC1 (stereo unspecified)	0.4%
COc1ccc2c(c1)c1c(c(=O)n(-c3ccccc3)c(=O)n1CC(=O)NCCC1=CCCCC1)n2C	-0.8%
Cc1ccc(CCNC(=O)c2ccc(NC(=O)N3CCSc4ccccc43)cc2)cc1	0.1%
O=C(CSc1cn(CC(=O)N2CCCC2)c2ccccc12)Nc1cc(C(F)(F)F)ccc1Cl	2.1%
CCN(CC)CCCOc1cc2nc(N3CCCN(C)CC3)nc(NC3CCN(C)CC3)c2cc1OC	-0.4%
CN(c1ccccc1)S(=O)(=O)c1ccc(NC(=O)c2cc(=O)c3ccccc3o2)cc1	-0.7%
Cc1ccc(C(=O)c2oc3ccccc3c2NC(=O)Cc2coc3cc(C)ccc23)cc1	0.7%
COc1cccc(CSc2nc3n(n2)C(c2ccccc2C)C(C(=O)Nc2ccccc2OC)=C(C)N3)c1 (stereo unspecified)	-0.2%
Cc1cc(C)cc(NC(=O)c2sc3nc(-c4cc5ccccc5oc4=O)[nH]c(=O)c3c2C)c1	-0.1%
CN(C)c1ccc(C(CNC(=O)c2cccc(C(F)(F)F)c2)N2CCCC2)cc1 (stereo unspecified)	-1.5%
O=C1CC(c2c(Cl)cccc2Cl)c2c(ccc3ccccc23)N1 (stereo unspecified)	4.0%
CCN(C(=O)Cn1nc(Cc2cccnc2)c2ccccc2c1=O)c1ccccc1F	0.4%
COc1ccc(-c2noc(-c3nnn(-c4ccc(C)cc4C)c3C)n2)cc1	0.7%
O=C(Nc1nc2n(n1)C(c1ccccc1)C=C(c1ccc(Cl)cc1)N2)c1ccco1 (stereo unspecified)	0.8%
O=C(Nc1ccccc1F)c1oc2ccccc2c1NC(=O)C12CC3CC(CC(C3)C1)C2	2.3%
CN(C)C(=O)c1ccc2c(c1)N(CC(=O)NCc1ccccc1Cl)C(=O)C1CCCCN21 (stereo unspecified)	0.9%
CCC(C(=O)NCc1ccccc1)n1ncn2c(cc3occc32)c1=O (stereo unspecified)	0.9%
Cc1ccc(NC(=O)c2nc(S(C)(=O)=O)ncc2N(Cc2ccco2)Cc2cccs2)cc1C	0.4%
N#Cc1cc2c(=O)n3ccccc3nc2n(-c2nnc(SCc3ccc(F)cc3)s2)c1=O	-0.2%
CCCN(C(=O)Nc1cn(CC(C)C)c(=O)c2ccccc12)c1ccc(F)cc1	-4.6%
Cc1ccc2c(c1)-c1c(cnn1CC(=O)N1CCN(c3cc(Cl)ccc3C)CC1)CO2	-1.1%

Sorted by the number under PINK1 expr mod (largest number first): 3 from the list above.
structure | PINK1 expr mod
O=C1CC(c2c(Cl)cccc2Cl)c2c(ccc3ccccc23)N1 (stereo unspecified) | 4.0%
COc1ccc(-c2noc(-c3nnn(-c4ccc(C)cc4C)c3C)n2)cc1 | 0.7%
CCCN(C(=O)Nc1cn(CC(C)C)c(=O)c2ccccc12)c1ccc(F)cc1 | -4.6%
